Screens: PubChem, PCMD
Calb biofilm kill – clotrimazole potentiators killing C. albicans biofilm, primary screen, 4-compound mixtures. C. albicans biofilm persisters + clotrimazole, fluorescence viability; primary screen in compound mixtures of four per well. 120,000 compounds, 0.02% hits. AID 1242, 2008. inhibition, % at 7.6 µM;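 active means inhibition above 30.3% in the primary screen of four-compound pools, then above 30% when the compound was retested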;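 further: compounds exposed to preformed 24 h biofilms for 48 h; the number belongs to the whole pool; some results filed as inactive read as strong as hits; inactives centre near 12; 0% = biofilm with clotrimazole alone and 100% = kill control; retested singly at about 60 µM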
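System: C. albicans CAF4-2 wild-type biofilms; Medium: RPMI/MOPS medium, pH 7.0; Reagent: Clotrimazole, 50 µg/mL; Times: biofilm formation 24 h, compound exposure 48 h, 37 °C; Detection: 2-h Alamar Blue fluorescence, 535/590 nm excitation/emission; Evaluation: percent inhibition of biofilm viability.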
An asterisk follows results filed as active; & = joins results of further samples. The list is partial; the hit share may differ from the screen's.

COc1ccc(-c2cnnn2-c2ccc(NC(=O)c3ccc(S(=O)(=O)N4CCCCC4)cc3)cc2)cc1OC was read as Calb biofilm kill 13.5.
Screening COc1ccc(CCNC(=O)c2ccc(-c3ccc([N+](=O)[O-])cc3Cl)o2)cc1OC returned Calb biofilm kill 17.5.
For CNC(=O)c1sc(-c2ccccn2)nc1C the results were Calb biofilm kill 9.1.
For CC1=CN2C(=N)/C(=C\c3cn(CCCOc4ccccc4)c4ccccc34)C(=O)N=C2S1 the results were Calb biofilm kill 9.3.
O=C(NNc1ccnc2cc(Cl)ccc12)C1CCCCC1 was read as Calb biofilm kill 16.2.
`O=C(O)c1ccc(N2C(=O)CC(N3CCC(c4nc5ccccc5[nH]4)CC3)C2=O)cc1` (centres undefined) gave Calb biofilm kill 13.5.
`COc1ccc(/C=C(/NC(=O)c2ccco2)C(=O)N2CCc3ccccc32)cc1OC` gave Calb biofilm kill 9.3.
For COc1ccc(N(C(=O)C(C)C)S(=O)(=O)c2cccc3cccnc23)cc1 the results were Calb biofilm kill 7.9.
FC(F)(F)c1ccccc1CN1CCN(C2CCCCCC2)CC1 was read as Calb biofilm kill 6.8.
For Cc1c(NC(=O)c2ccc(COc3ccc4ccccc4c3)o2)c(=O)n(-c2ccccc2)n1C the results were Calb biofilm kill 10.6.
For COc1ccc(NC(=O)CSc2nc3ccc(OC)cc3[nH]2)cc1 the results were Calb biofilm kill 18.8.
Screening Cc1cc(C)n(C(=O)CCCn2cc([N+](=O)[O-])cn2)n1 returned Calb biofilm kill -5.9.
Cc1cc(C(=O)N/N=C/c2cccc([N+](=O)[O-])c2)c2ccccc2n1 was read as Calb biofilm kill 23.6.
`Cc1ccc(C(=O)N2CCc3ccccc32)cc1` gave Calb biofilm kill 18.7.
`Cc1cccc(NC(=O)NC(C)CCc2ccccc2)c1` (centres undefined) gave Calb biofilm kill 23.8.
Cc1c(C=O)c2ccccc2n1CC(=O)NC(C)c1ccccc1 (centres undefined) was read as Calb biofilm kill 8.0.
For CC(Oc1ccc(Br)cc1)C(=O)NCc1ccccn1 (centres undefined) the results were Calb biofilm kill 19.8.
Screening O=[N+]([O-])/C(C(Cl)=C(Cl)Cl)=C(\Sc1ccccc1)N1CCCCC1 returned Calb biofilm kill 17.6.
For CC1=Nc2ccccc2N=C(NC(=O)CSC(=S)N2CCN(C)CC2)C1c1ccccc1 (centres undefined) the results were Calb biofilm kill 34.9.
For CC(=O)N(c1ccccc1)c1ccc([N+](=O)[O-])cc1[N+](=O)[O-] the results were Calb biofilm kill 7.0.
NS(=O)(=O)c1ccc(CCNC(=O)CC(NC(=O)c2ccccc2Cl)c2ccccc2)cc1 (centres undefined) was read as Calb biofilm kill 17.5.
`CC(C)N(C(=O)CSc1nc2ccccc2n1Cc1ccccc1F)C(C)C` gave Calb biofilm kill 5.6.
O=C(CS(=O)(=O)c1ccccc1)Nc1ccc(Br)cn1 was read as Calb biofilm kill 13.9.
Screening O=C(COc1ccc(Br)cc1CNCCc1ccccc1)NCc1ccccc1 returned Calb biofilm kill 16.5.
O=C(/C=C/c1ccccc1)NNC(=O)c1cccs1 was read as Calb biofilm kill -1.6.
`COc1ccc2c(c1)[nH]c1c(=O)n(/N=C/c3ccc(OC)c(COc4ccccn4)c3)cnc12` gave Calb biofilm kill 17.6.
Screening O=C(CCc1c[nH]c2ccccc12)Nc1ccc(S(=O)(=O)Nc2ncccn2)cc1 returned Calb biofilm kill 9.6.
Cc1cccc(Nc2ccc([N+](=O)[O-])cc2C(=O)O)c1 was read as Calb biofilm kill 24.8.
`CCCSc1nsc(NC(=O)c2cccnc2OCC)n1` gave Calb biofilm kill -7.0.
Screening O=C(Cc1n[nH]c(=O)[nH]c1=O)N/N=C/c1cccc(Cl)c1 returned Calb biofilm kill 14.3.
Screening CCOC(=O)C1(Cc2ccccc2C(F)(F)F)CCN(C2CCSC2)CC1 (centres undefined) returned Calb biofilm kill 10.6.
`Cc1cccn2c(CN3CCCC(c4ccccc4)C3)c(C(=O)N3CCOCC3)nc12` (centres undefined) gave Calb biofilm kill 13.3.
`Cc1ccc(OCc2nnc(SC3CCc4ccccc4C3=O)n2C)cc1` (centres undefined) gave Calb biofilm kill 10.2.
Screening O=C1N/C(=C/c2cccs2)C(=O)N1Cc1ccccc1F returned Calb biofilm kill 17.9.
COc1cc(NC(=S)N2CCCCC2C)cc(OC)c1OC (centres undefined) was read as Calb biofilm kill 9.2.
CN(C)c1ccc(/C=N/n2cnn(Cc3ccccc3Cl)c2=S)cc1 was read as Calb biofilm kill 19.2.
COc1ccc(C2CC(=O)C=C(NCc3ccccc3)C2)cc1 (centres undefined) was read as Calb biofilm kill 14.4.
Screening O=C(O)c1cc2c(s1)-c1ccccc1CC2 returned Calb biofilm kill 15.2.
`N=C1N(/N=C/c2ccccc2)C(=Nc2ccccc2)C(=S)N1c1ccccc1` gave Calb biofilm kill 4.2.
For O=c1c2cc(Br)ccc2[nH]c(=S)n1Cc1ccccn1 the results were Calb biofilm kill 9.9.

Of the compounds above, these have a thiophene ring, fused or not:
O=C(/C=C/c1ccccc1)NNC(=O)c1cccs1 was read as Calb biofilm kill -1.6.
Screening O=C1N/C(=C/c2cccs2)C(=O)N1Cc1ccccc1F returned Calb biofilm kill 17.9.
Screening O=C(O)c1cc2c(s1)-c1ccccc1CC2 returned Calb biofilm kill 15.2.

Remaining list, next part:
CCSc1cc(N2CCCC2)nc(-c2ccc(C)cc2)n1 was read as Calb biofilm kill 1.3.
Screening COc1ccccc1NC(=O)COC(=O)C1CCN(/C=C/C(=O)C(F)(F)F)CC1 returned Calb biofilm kill 6.8.
`CCSc1nnc(NC(=O)C(NC(=O)c2ccc(Cl)cc2)C(C)C)s1` (centres undefined) gave Calb biofilm kill 9.3.
Screening COc1ccc(C2CC(=O)Nc3n[nH]c(-c4ccccc4)c32)cc1OC (centres undefined) returned Calb biofilm kill -7.1.
For O=C(Nc1nnc(SCc2ccc(F)cc2)s1)c1ccc2c(c1)C(=O)N(c1ccccc1Cl)C2=O the results were Calb biofilm kill 5.4.
`NC(=O)Cc1nc(-c2ccc(Br)cc2)cs1` gave Calb biofilm kill 19.3.
For C=CCOCCN(CCOCC=C)C1=NS(=O)(=O)c2ccccc21 the results were Calb biofilm kill 16.3.
`O=C(COC(=O)C1=COCCO1)NC(=O)c1ccc(OC(F)F)cc1` gave Calb biofilm kill 17.2.
For O=C(c1ccccn1)N1CCN(c2cccc(C(F)(F)F)c2)CC1 the results were Calb biofilm kill 5.0.
Cc1cccc(N(C(=O)c2snc(C(N)=O)c2N)C(C)C(=O)NCC2CCCO2)c1 (centres undefined) was read as Calb biofilm kill 8.3.
For CN(C)/N=C/c1cc([N+](=O)[O-])ccc1O the results were Calb biofilm kill 2.2.
Screening CCOC(=O)c1cnc2ncnn2c1N returned Calb biofilm kill 12.3.
Screening CCCOc1ccc(CCC(=O)O)cc1 returned Calb biofilm kill 22.1.
COc1ccc(Cc2nnc(NC(=O)c3cc(OC)c(OC)c(OC)c3)s2)cc1OC was read as Calb biofilm kill 19.3.
O=C(CCCN1C(=O)/C(=C/c2cccs2)SC1=S)Nc1ccc(C(=O)O)cc1 was read as Calb biofilm kill 13.2.
CSc1ccc(NC(=O)Nc2ccc(C(=O)NCC(=O)O)cc2)cc1 was read as Calb biofilm kill 20.0.
O=C(Nc1cc(S(=O)(=O)N2CCOCC2)ccc1N1CCCC1)C1CC1 was read as Calb biofilm kill -9.2.
Cc1ccc(-c2csc(NC(=O)c3ccc(S(=O)(=O)N4CCc5ccccc54)cc3)n2)cc1 was read as Calb biofilm kill -3.1.
For COc1cccc(NC(=O)c2oc3ccc(S(=O)(=O)N4CCOCC4)cc3c2C)c1 the results were Calb biofilm kill 23.8.
Screening O=C(Cn1nc2ccccc2n1)N/N=C/c1cc([N+](=O)[O-])ccc1O returned Calb biofilm kill 9.2.

Quoted at random: 2 records from the list
Screening CCOC(=O)C1(Cc2ccccc2C(F)(F)F)CCN(C2CCSC2)CC1 (centres undefined) returned Calb biofilm kill 10.6.
Screening Cc1cc(C)n(C(=O)CCCn2cc([N+](=O)[O-])cn2)n1 returned Calb biofilm kill -5.9.

The listing continues:
`C=CCCN(C(C(=O)OC)C(C)C)S(=O)(=O)c1ccccc1Br` (centres undefined) gave Calb biofilm kill 12.6.
For Cc1cc(C)cc(-n2c(SCC(=O)Nc3cccc(S(=O)(=O)NC4=NCCCCC4)c3)nc3ccccc3c2=O)c1 the results were Calb biofilm kill 15.9.
Screening O=C(Cn1nnc2ccccc21)c1ccccc1 returned Calb biofilm kill 14.9.
Screening O=C(COc1ccc(Cl)cc1)NNC(=O)CSc1nncs1 returned Calb biofilm kill 3.5.
CN(Cc1ccsc1)C(=O)CCc1nnc(Cc2c[nH]c3ccccc23)o1 was read as Calb biofilm kill 4.9.
Screening O=C(COC(=O)/C=C/c1ccc([N+](=O)[O-])cc1)NC(c1ccccc1)c1ccccc1 returned Calb biofilm kill 19.1.
Cc1cc(N/N=C/c2ccc(Cl)cc2)nc(NCc2ccccc2)n1 was read as Calb biofilm kill 10.1.
COC(=O)c1sc2ccccc2c1NC(=O)c1ccc(S(=O)(=O)N2CCCC(C)C2)cc1 (centres undefined) was read as Calb biofilm kill 13.4.
Screening COc1ccc(CNC(=O)c2c([S-])n(-c3ccc(C)cc3)c3cccc[n+]23)cc1 returned Calb biofilm kill -10.7.
COc1ccc2nc(/C=N/NC(=O)CCCCCNC(=O)OC(C)(C)C)ccc2c1 was read as Calb biofilm kill 20.4.
`O=C(NCc1cccs1)C(=O)NCC1OCCCN1S(=O)(=O)c1ccccc1` (centres undefined) gave Calb biofilm kill 18.7.
CCO[C@@H]1OC(C(=O)N2CCCCCCC2)=C[C@H](c2cn(C(C)=O)c3ccccc23)[C@H]1CCCO was read as Calb biofilm kill 19.8.
Cn1cnnc1SCC(=O)Nc1cc(C(F)(F)F)ccc1N1CCOCC1 was read as Calb biofilm kill 10.2.
Screening C/C(=N\NC(N)=S)c1ccccc1 returned Calb biofilm kill 12.0.
Screening O=C(O)CSc1nc2c(c(C(F)(F)F)n1)CCc1ccccc1-2 returned Calb biofilm kill 5.5.
COc1ccc(-c2cc(=O)c3cc(F)ccc3[nH]2)cc1 was read as Calb biofilm kill -2.1.
For CCOC(=O)/C(C#N)=C/c1c[nH]c2ccccc12 the results were Calb biofilm kill 18.7&18.6.
Screening O=C(Nc1ccc(C2=NCCN2)cc1)c1ccc(Cl)c(C(=O)Nc2ccc(C3=NCCN3)cc2)c1 returned Calb biofilm kill 16.2.
`NS(=O)(=O)c1ccc(CCNC(=O)C2CCN(S(=O)(=O)c3c(Cl)cccc3Cl)CC2)cc1` gave Calb biofilm kill 14.7.
Screening COc1cc(NC(=O)COC(=O)/C=C/c2ccc(OC)c(OC)c2)cc(OC)c1 returned Calb biofilm kill 7.9.
For O=C1NC(=S)N/C1=C\C=C\c1ccccc1 the results were Calb biofilm kill 18.1.
Screening COc1cc2nc(CN3CCN(C(C)=O)CC3)[nH]c(=O)c2cc1OC returned Calb biofilm kill 11.3.
`Cc1ccc(S(=O)(=O)N2CCN(C(=O)Cn3nc(C(=O)O)c4ccccc4c3=O)CC2)cc1` gave Calb biofilm kill 23.5.
Cc1csc2c(=O)sc(NC(=O)c3ccco3)nc12 was read as Calb biofilm kill 1.7.
Screening CCc1nc(NCCO)c(C#N)c2c1CSC(C)(C)C2 returned Calb biofilm kill 5.2.
Screening CCO[C@H]1OC(C(=O)N2CCN(C)CC2)=C[C@@H](C2CC2)[C@@H]1CCCO returned Calb biofilm kill 11.0.
O=C(CSC1=NCCS1)Nc1ccc(F)cc1 was read as Calb biofilm kill 2.9.
Screening COc1ccc(/C=C/C(=O)NCC2COc3ccccc3O2)c(OC)c1 (centres undefined) returned Calb biofilm kill 5.5.
Cc1cc(C)cc(N(CC(=O)NC2CCCCCC2)S(=O)(=O)c2c(C)[nH]c(=O)[nH]c2=O)c1 was read as Calb biofilm kill 22.6.
For CCCC(C)NC(=O)CSc1nc2ccc(C)cc2[nH]1 (centres undefined) the results were Calb biofilm kill 10.8.

An excerpt from above in order of SMILES length, smallest number first:
O=C(CSC1=NCCS1)Nc1ccc(F)cc1 was read as Calb biofilm kill 2.9.
`Cc1ccc(S(=O)(=O)N2CCN(C(=O)Cn3nc(C(=O)O)c4ccccc4c3=O)CC2)cc1` gave Calb biofilm kill 23.5.
Cc1cc(C)cc(N(CC(=O)NC2CCCCCC2)S(=O)(=O)c2c(C)[nH]c(=O)[nH]c2=O)c1 was read as Calb biofilm kill 22.6.

Following part
`COC(=O)c1cc(=O)n(Cc2ccco2)c(=Nc2ccc(F)cc2)s1` gave Calb biofilm kill 13.9.
CC1=C(C(=O)NCc2ccccc2)C(c2cccs2)NC(=S)N1 (centres undefined) was read as Calb biofilm kill 7.0.
For COc1ccc(CC(=O)Nc2nnc(C(C)C)s2)cc1 the results were Calb biofilm kill -7.7.
Screening COc1ccc([N+](=O)[O-])cc1NC(=O)CCNC(=O)Cn1ccc2ccccc2c1=O returned Calb biofilm kill 17.9.
CC1(CC(=O)N/N=C/c2ccc(-c3cccc(C(F)(F)F)c3)o2)OCCO1 was read as Calb biofilm kill -9.4.
COC(=O)c1ccc(C23CC4(C2)[C@H](CN(Cc2ccc(C(F)(F)F)cc2)[C@@H]4c2ccccc2)C3c2ccc(C(F)(F)F)cc2)cc1 (some centres undefined) was read as Calb biofilm kill 14.0.
CCOC(=O)c1cc(-c2ccccc2)nc2nc(N3CCCCC3)sc12 was read as Calb biofilm kill 8.0.
Cc1cc(=O)oc2cc(NS(=O)(=O)c3ccccc3)ccc12 was read as Calb biofilm kill 17.2.
`CC1(C)CC(=O)C(CC2C(=O)CC(C)(C)CC2=O)C(=O)C1` gave Calb biofilm kill 22.7.
For Cc1ccsc1-c1n[nH]c(=S)n1C1CCCCC1 the results were Calb biofilm kill 18.1.
`CC(C)(C)Cc1nnc(NC(=O)CN2C(=O)c3ccccc3C2=O)s1` gave Calb biofilm kill 13.3.
